Compound activity: PubChem BioAssay, several laboratories
YopH inh = inhibitors of Yersinia enterocolitica YopH tyrosine phosphatase | fluorescence Ex485/Em525 | inhibition, %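 (about 10 µM by stock and volumes)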 | 0.16% of 140,000 active | AID 898;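 active = inhibition of 50% or more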;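 also: controls were vehicle for no effect and minimum signal wells for full effect; inactives centre near -20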
Mtb betalactam = beta-lactam sensitization of Mtb H37Rv | M. tuberculosis H37Rv growth with meropenem, percent inhibition; hits of this screen are not shown here | inhibition, % at 25 µM | 0.27% of 330,000 active | AID 434955;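 active = about 74% or more and at least 40 points above the plate without the antibiotic, then above 30% in a dose series; inconclusive = first-round hits that could not be retested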;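 also: growth measured after seven days incubation then overnight dye step; 0% = bacteria only wells and 100% = bacteria with antibiotic; twin plates without the antibiotic show which effects depend on it; some results filed as inactive read as strong as hits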
Mtb H37Rv = M. tuberculosis H37Rv growth inhibitors, H37Rv strain (AID 1626); 0.95% of 220,000 active; inhibition, % at 10 µM; hits with a dose series show IC50 in µM; M. tuberculosis H37Rv growth inhibition; higher % means a stronger effect;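 active = confirmed in a dose series; inconclusive = inhibition above 80% but not taken into the dose series; inactive = below 80% or under 30% at every dose of the series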;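 also: bacteria incubated seven days before Alamar blue readout; 0% = bacteria only wells and 100% = bacteria with antibiotic wells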
Arbovirus inh = arbovirus infection inhibition. arbovirus infection cell-based antiviral screen. inhibition, % at 10 µM. 0.37% of 200,000 active;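 active = inhibition from about 30%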;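 also: bluetongue infection of BSR cells; cell survival read as ATP light after 72 h; 0% = infected wells without compound and 100% = uninfected wells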
RecA splice inh = blocks M. tuberculosis RecA intein splicing; P9WHJ3; cell-free RecA intein splicing, fluorescence; inhibition, %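 (about 9 µM by stock and volumes)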; 0.75% of 290,000 active; in the data active = inhibition above about 30%; inconclusive = no clear call, values can overlap the other calls;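 also: 0% = vehicle wells and 100% = reference inhibitor control wells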
Target sequence (P9WHJ3 whole entry, looked up, canonical isoform): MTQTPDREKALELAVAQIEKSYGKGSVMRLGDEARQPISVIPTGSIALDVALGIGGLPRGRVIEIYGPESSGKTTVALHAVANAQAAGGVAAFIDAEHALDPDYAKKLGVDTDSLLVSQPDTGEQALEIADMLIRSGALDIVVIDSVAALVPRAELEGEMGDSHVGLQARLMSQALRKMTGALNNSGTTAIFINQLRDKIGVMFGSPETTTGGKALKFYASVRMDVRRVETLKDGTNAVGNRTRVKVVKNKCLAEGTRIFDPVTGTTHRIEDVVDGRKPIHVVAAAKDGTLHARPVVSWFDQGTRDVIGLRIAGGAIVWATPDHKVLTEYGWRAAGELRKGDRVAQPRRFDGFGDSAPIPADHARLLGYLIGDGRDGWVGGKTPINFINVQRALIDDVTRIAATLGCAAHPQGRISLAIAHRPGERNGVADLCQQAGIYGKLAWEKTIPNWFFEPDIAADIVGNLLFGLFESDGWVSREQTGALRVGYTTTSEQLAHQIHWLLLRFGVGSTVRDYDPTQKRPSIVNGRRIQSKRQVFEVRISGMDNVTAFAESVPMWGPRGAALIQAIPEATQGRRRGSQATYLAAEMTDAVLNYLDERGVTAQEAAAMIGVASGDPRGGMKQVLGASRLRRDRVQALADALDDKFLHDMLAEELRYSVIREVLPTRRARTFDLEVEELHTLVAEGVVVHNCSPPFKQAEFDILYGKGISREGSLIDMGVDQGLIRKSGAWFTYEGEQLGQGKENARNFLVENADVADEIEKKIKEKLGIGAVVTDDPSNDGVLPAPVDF
Arbovirus inh repeat = further read-out of Arbovirus inh, marked with its call; inhibition, %; measured here: 10K subset replicate screen; many hits read low in the repeat;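 first of two repeat runs on a subset; 0% = infected and 100% = uninfected wells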
* marks the source's active call; other numbers are inactive results; ? = inconclusive; . = no result given; & = joins results of further samples. A portion of the library (hit frequency here may not be typical).

SMILES | YopH inh | Mtb betalactam | Mtb H37Rv | Arbovirus inh | RecA splice inh | others
CCOC(=O)/C(C#N)=C/c1c(Oc2cc(C)cc(C)c2)nc2ccccn2c1=O | -10 | 8 | -1% | 9 | -1.6
COc1ccccc1/C=C/C=N/NC(=O)c1cc(-c2ccc(C)o2)[nH]n1 | . | 99 | ? | . | -3.2
CCc1ccccc1NC1=NCC(=O)N1Cc1ccc(OC)cc1 | -36 | -7 | 6% | -3 | 3.7
CCOc1ccc(C2N(c3cc(Cl)ccc3OC)C(=O)C3CCCN32)cc1OC (stereo unspecified) | -44 | 5 | -2% | 4 | 0.7
COc1cc(/C=C/c2nc3ccccc3c(=O)[nH]2)ccc1OC(F)F | . | -2 | . | . | -6.5
CC1(C)CSC(=S)N1S(=O)(=O)c1ccccc1 | -18 | 1 | 2% | 5 | 8.1
N#C/C(=C\c1ccc(Cl)cc1)c1nc2ncccc2[nH]1 | -27 | 6 | -8% | -22 | -2.5
NC(=O)N/N=C/c1cn(-c2ccccc2)nc1-c1cccnc1 | . | -10 | -11% | . | 6.4
c1ccc(Cc2ccc(OCCCNC3CCCC3)cc2)cc1 | . | 1 | 7% | -32 | 2.9
COc1ccc(NC(=O)Cn2nnc(C(=O)NCc3cccs3)c2N)cc1 | . | 4 | . | . | -1.6
CNC(=O)c1ccsc1NC(=O)c1ccc(S(=O)(=O)N2CCCc3ccccc32)cc1 | -2 | 0 | . | -9 | 7.2
Cc1ccc(CNC(=O)CNS(=O)(=O)c2cccc3nsnc23)cc1 | -42 | -4 | -6% | -5 | 3.6
Cc1cccc(NC(=O)c2cccc3c2-c2ccccc2C3=O)n1 | . | 0 | 13% | -4 | 3.5
Cc1cc(NC(=O)c2ccco2)ncc1NC(=O)Cc1ccccc1 | 1 | -6 | 3% | -1 | 0.2
O=C(NCC1CCCO1)c1cc(-c2ccc(F)cc2)no1 (stereo unspecified) | . | 3 | . | . | 6.0
CC1(c2ccc(OC(F)F)cc2)NC(=O)N(CC(=O)NC2CCCCC2)C1=O (stereo unspecified) | -8 | -4 | -8% | 6 | 0.0
O=S(=O)(Nc1ccc2[nH]ncc2c1)c1ccccc1Cl | . | 87 | . | . | 12
Cc1cc(C)c2cc(C(=O)Nc3ccccc3)[nH]c2c1 | . | 100 | 50% | . | 3.3
CCCCCn1c(=O)[nH]c2cc(C(=O)NC3CCN(Cc4ccccc4)CC3)ccc2c1=O | . | 4 | . | . | 0.2
O=C(Nc1ccc(Nc2ccccc2)cc1)N1CCOCC1 | 13 | 2 | 2% | -31 | 7.9
COC(=O)C1C2C=CC3(CN(C(C)c4ccc(OC)cc4)C(=O)C13)O2 (stereo unspecified) | -40 | 1 | -7% | 9 | 0.1
COc1ccc(N(CC(=O)N2CCc3ccccc3C2)S(=O)(=O)c2c(C)nn(C)c2C)cc1 | -40 | -3 | -3% | -7 | .
O=C(COc1ccccc1Cl)N(Cc1cccs1)C1CCS(=O)(=O)C1 (stereo unspecified) | . | 0 | . | . | -0.5
O=C1CCS/C(=N\N=C\c2ccc(Cl)cc2Cl)N1 | . | 1 | 8% | . | 1.1
O=C(CSCc1nc2c(nnn2Cc2ccc(F)cc2)c(=O)[nH]1)Nc1c(Cl)cc(Cl)cc1Cl | . | -9 | -7% | -18 | 0.3

More structures:
SMILES | YopH inh | Mtb betalactam | Mtb H37Rv | Arbovirus inh | RecA splice inh | others
Nc1c(NCCc2ccccc2)c2ccccc2oc1=O | . | -11 | 1% | -1 | -0.6
O=C(N=C1SC2CS(=O)(=O)CC2N1c1cccc(Cl)c1)C1CCCO1 (stereo unspecified) | . | 3 | . | . | 1.3
COc1cccc(N2CCN(c3ncnc4c3[nH]c3ccccc34)CC2C)c1 (stereo unspecified) | -37 | 100 | 76% | -43 | 13
N#CCCN(CC(=O)O)S(=O)(=O)c1ccccc1 | 7 | -13 | -9% | 8 | 2.8
CCN(CC)S(=O)(=O)c1ccc(C(=O)OCC(=O)Nc2sc3c(c2C#N)CCCCC3)cc1 | -20 | -7 | 7% | 0 | 1.2
CCCCN(CC)CCNC(=O)CCC(=O)Nc1ccc2nc(N3CCN(C)CC3)cc(C)c2c1 | . | -6 | 1% | -6 | -35
O=C(NNc1cccc(Cl)n1)Nc1ccccc1Cl | -42 | -4 | 2% | 5 | 3.4
c1ccc(Cn2nnc3c(NCc4ccc5c(c4)OCO5)nc(C4CC4)nc32)cc1 | -19 | 13 | 22% | -11 | 0.4
CN(C)C(=O)c1cc(C(=O)c2ccccc2F)c[nH]1 | . | -3 | . | . | -2.3
COc1ccc(Cl)cc1N1C(=O)C2CCCN2C1c1cccc(F)c1 (stereo unspecified) | -7 | -10 | 8% | -5 | 1.3
O=C(COC(=O)CNC(=O)c1ccc(Cl)cc1Cl)Nc1cccc(S(=O)(=O)N2CCCC2)c1 | . | -9 | . | . | 1.7
CCC1CCCCN1C(=O)c1cccc(S(=O)(=O)Nc2cc(C(F)(F)F)ccc2Cl)c1 (stereo unspecified) | -15 | 0 | -2% | 8 | 6.7
O=C(NCC1CCCN(Cc2ccc3nonc3c2)C1)c1cccc(C(F)(F)F)c1 (stereo unspecified) | . | -12 | -1% | 1 | -5.5
COc1cc(NC(=S)NC(=O)c2ccccc2C)ccc1NC(=O)c1cccs1 | -36 | 0 | 6% | -8 | -2.0
Cc1ccc(S(=O)(=O)N(C)CCCC(=O)Nc2ccccn2)cc1 | . | -9 | . | . | 0.3
CC12CCC(=O)N1C(C(=O)NNC(=O)c1cccc(Cl)c1)CS2 (stereo unspecified) | . | -10 | . | . | -5.6
Cn1cc(S(=O)(=O)N2CCN(c3ccccc3)CC2)c(=O)n(C)c1=O | -27 | 9 | 4% | 3 | -0.6
CCOC(=O)c1ccc(NC(=S)N(Cc2cccnc2)Cc2ccco2)cc1 | . | -2 | 68% | 17 | -1.9
C=CCNCc1cccn1-c1ccccc1 | 4 | 11 | -4% | 0 | 2.3
Cc1ccc(N(Cc2cc3ccc(C)cc3[nH]c2=O)S(C)(=O)=O)c(C)c1 | . | -6 | 6% | . | -4.5
CCOc1ccc(NC(=O)CN2CC(c3ccccc3)CC2=O)cc1 (stereo unspecified) | -26 | 8 | 4% | 5 | 1.2
c1c2c(cc3sc(N4CCOCC4)nc13)OCCO2 | -25 | -2 | -7% | -5 | -2.1
CC(=O)C1=C(O)C(=O)N(CCCn2ccnc2)C1c1ccc(C)cc1 (stereo unspecified) | -32 | 1 | 0% | 2 | 2.2
O=C(CCCn1c(=S)[nH]c2ccc(Br)cc2c1=O)NCC1CCCO1 (stereo unspecified) | -16 | -7 | 7% | -1 | -0.2
CCc1nnc(NC(=O)CN2CCN(Cc3ccc(C)cc3)CC2)s1 | . | 0 | . | . | 1.7

Remaining list, next part.
SMILES | YopH inh | Mtb betalactam | Mtb H37Rv | Arbovirus inh | RecA splice inh | others
Cc1ccc(Nc2cc(C)nc3ccccc23)c(C)c1 | . | -7 | . | . | 0.2
CCCCNC(=S)NNC(=O)c1csc(CC)c1 | -10 | -2 | -15% | 3 | -1.4
COc1ccc(-n2c(Cc3cccn3C)nnc2SCC(=O)Nc2nccs2)cc1 | -29 | -4 | -3% | -3 | 0.0
CCOc1ccc(CCNC(=O)c2ccc(NC3=NC4CS(=O)(=O)CC4S3)cc2)cc1 (stereo unspecified) | . | 5 | . | . | -2.0
CCCC(=O)c1c[nH]c(C(=O)NCc2cccnc2)c1 | . | -1 | 5% | -4 | -3.2
COc1cc(OC)c(CN2CCCCCCC2)cc1Br | 7 | 3 | -1% | 0 | 1.1
CCC1CCc2c(sc(NC(=O)C3CC=CCC3C(=O)O)c2C#N)C1 (stereo unspecified) | -15 | 1 | -6% | 14 | 3.4
COc1ccccc1-n1cc(C(=O)NCC(=O)NCc2ccc(F)cc2)c2ccccc2c1=O | . | 1 | -4% | 1 | 1.1
COc1ccc(-n2c(=O)c(CCC(=O)N3CCN(c4ccccc4O)CC3)nc3ccccc32)cc1 | . | 6 | . | . | 5.9
CCCC(=O)Nc1ccc(S(=O)(=O)Nc2nccs2)cc1 | . | 8 | . | . | 0.3
O=C(c1ccco1)N1CCCN(Cc2nc(Cc3ccccc3)no2)CC1 | . | 4 | -2% | 2 | 1.1
N/C(=N\OC(=O)CC1CCCCC1)c1cccc([N+](=O)[O-])c1 | -16 | -4 | ? | -3 | 0.3
CCCC(c1nnnn1Cc1ccco1)N1CCN(c2cc(Cl)ccc2C)CC1 (stereo unspecified) | -42 | 3 | 12% | -12 | .
CN1N=C(C(=O)N2CCCC(N3CCN(c4ccc(F)cc4)CC3)C2)CCC1=O (stereo unspecified) | . | 1 | . | . | -2.2
CN(C)C(=O)c1nc2ccc(Cl)cn2c1CNCc1cccc(OC(F)(F)F)c1 | . | -1 | 11% | . | 0.1
O=C(CN1C(=O)c2ccccc2C1=O)Nc1ccccc1C(F)(F)F | . | 2 | . | . | -2.5
O=C1CCCC(O)=C1N=Nc1ccc2c(c1)OCO2 | -9 | 5 | 1% | -23 | 0.2
Cc1[nH]c(C)c(S(=O)(=O)N2CCCCC2)c1C(=O)N1CCCCC1 | . | -1 | . | . | 0.0
COc1ccc2nc(NC(=O)Cc3cccs3)sc2c1 | -19 | 30 | 6% | -2 | 6.0
O=C(O)C1CCCN1S(=O)(=O)c1ccc(Br)cc1 (stereo unspecified) | . | -2 | . | . | -0.8
CCN(C1CCCCC1)S(=O)(=O)CCNC(=O)c1ccc2c(c1)OCO2 | . | -10 | . | . | -0.3
C[C@]12CC[C@@H]3c4ccc(OS(=O)(=O)O)cc4CC[C@H]3[C@@H]1CCC2=O | -11 | 97&-4&21 | -10%&-3% | 3 | 0.9&-4.3
CCOC(=O)c1ccc(NC(=S)NCCC2=CCCCC2)cc1 | -9 | 55 | -7% | 19 | -0.9
CCCCCCCCCCCCCCCC[n+]1cccc2ccccc21 | -6 | 17 | 49% | -46 | .
Cc1c(NC(=O)c2ccc(S(=O)(=O)N3CC(C)OC(C)C3)cc2)c(=O)n(-c2ccccc2)n1C (stereo unspecified) | . | 2 | 4% | 2 | 1.3

The results go on:
SMILES | YopH inh | Mtb betalactam | Mtb H37Rv | Arbovirus inh | RecA splice inh | others
O=[N+]([O-])c1cccnc1N1CCN(c2ccc(F)cc2)CC1 | . | -1 | -4% | 12 | -4.4
Cc1cc(CSc2ccccc2)ccc1NC(=O)c1ccc(CN2CCOCC2)cc1 | -25 | 53 | 8% | 7 | 0.6
Cc1cc(C(=O)N/N=C/c2cc(Br)cc(Br)c2OC(=O)c2cccc(F)c2)n[nH]1 | . | 5 | 6% | -15 | 1.0
O=C(Nc1ccccc1)c1cc2ccccc2o1 | 0 | 95 | 7% | -9 | 1.6
COCCNC(=S)c1ccc(Br)cc1 | . | -1 | -7% | -7 | -4.1
COc1ccc(Cn2c(=O)[nH]c3cc(C(=O)NCCCN4CCCCC4)ccc3c2=O)cc1 | -46 | -4 | -7% | -5 | . | Arbovirus inh repeat=-3
Cc1ccc(NC(=S)Nc2c(C)n(C)n(-c3ccccc3)c2=O)cc1Cl | . | -1 | 44% | -6 | -1.0
COC(=O)c1ccc(C2C(C#N)=C(N)Oc3cc(O)ccc32)cc1 (stereo unspecified) | . | 1 | . | . | -0.1
CS(=O)(=O)N(Cc1ccc(Cl)cc1)c1ccc(C(=O)NCCSCc2ccco2)cc1 | -23 | -10 | -5% | -3 | 1.1
CCc1nnc(NC(=O)CSc2nccn2-c2cc(C)cc(C)c2)s1 | 0 | -1 | 3% | -7 | -3.2 | Arbovirus inh repeat=-14
COc1ccc(C(=O)N2CC3(C)C4CCC3(C)C2(C#N)C4)cc1OC (stereo unspecified) | . | -5 | -13% | 0 | 1.9
COc1ccc(C(=O)NC(=S)Nc2ccc3[nH]c(=O)[nH]c3c2)cc1 | . | 7 | . | . | -2.2
Cc1ccc(NC(=O)CN2CCCN(S(=O)(=O)c3ccc(Br)s3)CC2)cc1 | 7 | -8 | 3% | -9 | 2.2
Cc1ccc(S(=O)(=O)Nc2ccc3oc(=O)sc3c2)c(C)c1 | -29 | 7 | -3% | -26 | 5.8
Cc1ccn2c(=O)nc(SCC(=O)Nc3cc(C)on3)nc2c1 | . | 0 | . | . | 0.9

No new results follow: an excerpt of the list.
SMILES | YopH inh | Mtb betalactam | Mtb H37Rv | Arbovirus inh | RecA splice inh | others
O=[N+]([O-])c1cccnc1N1CCN(c2ccc(F)cc2)CC1 | . | -1 | -4% | 12 | -4.4
Cc1cc(CSc2ccccc2)ccc1NC(=O)c1ccc(CN2CCOCC2)cc1 | -25 | 53 | 8% | 7 | 0.6
Cc1cc(C(=O)N/N=C/c2cc(Br)cc(Br)c2OC(=O)c2cccc(F)c2)n[nH]1 | . | 5 | 6% | -15 | 1.0
